HCMV UL50-53 inh: cytomegalovirus nuclear egress complex inhibition. HTRF UL50-UL53 interaction, normalized percent inhibition. inhibition, % (no concentration beside the values). hit rate 0.15% among 190,000;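 active = both replicates at 50% or more, plus weaker picks with an unusually low signal ratio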;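 also: stock transfer was 100 nL into about 20 µL; 0% = negative control wells and 100% = wells with untagged competitor protein; inactives centre near -12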
GIV Gai3 FP: GIV-Galpha-i interaction inhibition | P08753 | Galpha-i3/FITC-GIV peptide fluorescence polarization, 90 min; hits give low values; scaled: aluminum fluoride 0%, vehicle 100% | percent of control (FP), % (concentration not given with the values) | hit rate 0.42% among 210,000 | AID 1224905;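 active = replicate mean at 85% of control or lower, very high polarization wells dropped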;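 also: wells of about 15 µL received 100 nL stock; the first replicate is given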
Target sequence (P08753 whole entry, looked up): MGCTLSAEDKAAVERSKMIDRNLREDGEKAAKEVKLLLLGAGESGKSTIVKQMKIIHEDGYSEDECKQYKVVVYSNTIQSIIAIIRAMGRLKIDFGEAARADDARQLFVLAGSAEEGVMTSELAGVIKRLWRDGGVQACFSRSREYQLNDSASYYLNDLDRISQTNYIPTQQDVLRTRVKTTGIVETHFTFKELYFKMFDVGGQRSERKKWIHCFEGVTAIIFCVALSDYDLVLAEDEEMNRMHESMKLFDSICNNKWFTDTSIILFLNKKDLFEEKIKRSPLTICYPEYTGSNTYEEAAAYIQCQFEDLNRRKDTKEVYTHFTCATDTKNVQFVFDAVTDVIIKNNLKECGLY
An asterisk follows results filed as active; · = no result given; & = joins results of further samples.

Under each structure: GIV Gai3 FP	HCMV UL50-53 inh
1: O=C(NC1CC1)C1CCN(c2cncnc2N2CCCCC2)CC1
    110	·
2: COc1ccccc1-c1noc(CCn2nc(-c3ccccc3)ccc2=O)n1
    108	·
3: O=c1c2cc3c(cc2nc(SCc2nc(-c4ccccc4)no2)n1Cc1ccncc1)OCO3
    103	·
4: CCOc1ccc(CNC(=O)c2snc(C(=O)NCc3ccc(F)cc3)c2N)cc1
    102	·
5: COc1cc(OC)c(NC(=O)N2CCCC(C)(C(=O)NCc3ccc(C)cc3)C2)cc1Cl (centres undefined)
    106	·
6: CC(=O)OC1CCN(C(=O)C(C)(C)C)CC1
    102	·
7: CC1(C)Cc2c(sc(NC(=S)NC(=O)c3ccccc3)c2C(=O)O)CO1
    104	·
8: CN1CCN(CCC(=O)N2c3ccccc3Sc3ccc(C(F)(F)F)cc32)CC1
    110	·
9: CC(C)OCCCNC(=O)C1CCN(c2ncnc3c2oc2ccccc23)CC1
    98	·
10: Cc1ccc(Cn2c(CN3CCC(C(=O)NCc4ccccn4)CC3)cc3ccccc32)cc1
    104	·

The closing three entries of the section above lead into the next.
Under each structure: GIV Gai3 FP	HCMV UL50-53 inh
8: CN1CCN(CCC(=O)N2c3ccccc3Sc3ccc(C(F)(F)F)cc32)CC1
    110	·
9: CC(C)OCCCNC(=O)C1CCN(c2ncnc3c2oc2ccccc23)CC1
    98	·
10: Cc1ccc(Cn2c(CN3CCC(C(=O)NCc4ccccn4)CC3)cc3ccccc32)cc1
    104	·
11: O=C(NC1CCN(Cc2ccccc2)CC1)C1CCCN(c2ncnc3c2oc2ccccc23)C1 (centres undefined)
    105	·
12: CC(C)C[C@@H](C(=O)N[C@H](C(=O)OC1CCCC1)c1ccccc1)[C@H](O)C(=O)NO
    ·	4
13: Cn1cc(-c2ccc3nnc(C(F)(F)c4ccc5ncccc5c4)n3n2)cn1
    ·	-27&-32&-41&-62
14: CC1(C)O[C@@H]2C[C@H]3[C@@H]4C[C@@H](F)C5=CC(=O)C=C[C@]5(C)[C@]4(F)C(O)C[C@]3(C)[C@@]2(C(=O)CO)O1 (some centres undefined)
    ·	-1
15: O=C(Cc1ccc(-c2ccc(OCCN3CCOCC3)cc2)cn1)NCc1ccccc1
    ·	-3
16: CN1CCN(CCOc2cc(OC3CCOCC3)c3c(Nc4c(Cl)ccc5c4OCO5)ncnc3c2)CC1
    ·	-20&-3&-12&-2&-8
17: CNC(=O)CN1CCC(Oc2cc3c(Nc4cccc(Cl)c4F)ncnc3cc2OC)CC1
    ·	-9
18: Cc1[nH]nc2ccc(-c3cncc(OCC(N)Cc4ccccc4)c3)cc12 (centres undefined)
    ·	0
19: CCn1cc(-c2ccnc3[nH]c(-c4cccc(CN(C)C)c4)cc23)c(-c2ccc(NC(=O)N(C)C)cc2)n1
    ·	-13&-16&-22&-53
20: COc1ccc(C=CC(=O)Nc2ccccc2C(=O)O)cc1OC
    ·	-80&-152
21: Cc1cc(OCc2nnc(SC3CCCC3)n2-c2cccnc2)ccc1-c1ccc(S(C)(=O)=O)cc1
    ·	5
22: N#C/C(=C1/Nc2ccccc2S1)c1ccnc(NCCc2cccnc2)n1
    ·	-21
23: NC(=O)c1cccc(-c2cc(Nc3ccc(OC(F)(F)F)cc3)ncn2)c1
    ·	-2&-3&-2
24: O=C1c2c(O)cccc2[C@H]([C@@H]2OC(CO)C(O)C(O)C2O)c2cc(CO)cc(O)c21 (some centres undefined)
    ·	-11
25: Cc1cc(Nc2ncc(Cl)c(Nc3ccccc3S(=O)(=O)C(C)C)n2)c(OC(C)C)cc1C1CCNCC1
    ·	-12
26: COc1ccc(S(=O)(=O)N2c3ccc(Cl)cc3[C@](O)(c3ccccc3Cl)[C@@H]2C(=O)N2CCC[C@H]2C(N)=O)cc1OC
    ·	3
27: COc1cc2c(Oc3ccc(NC(=O)C4(C(=O)Nc5ccc(F)cc5)CC4)cc3F)ccnc2cc1OCCCN1CCOCC1
    ·	-10
28: C[C@@H](N)C1CCC(C(=O)Nc2ccncc2)CC1 (some centres undefined)
    ·	-17&-7&-9
29: CCCCNC(=O)[C@@H]1Cc2ccccc2N1C(=O)[C@@H](N)CC
    ·	-4
30: CCCSc1nc(NC2CC2c2ccc(F)c(F)c2)c2nnn(C3CC(OCCO)C(O)C3O)c2n1 (centres undefined)
    ·	-20
31: C#CCC(Cc1cnc2nc(N)nc(N)c2n1)c1ccc(C(=O)NC(CCC(=O)O)C(=O)O)cc1 (centres undefined)
    ·	-78
32: CNC(=O)c1cccc(-c2ccc3c(N4CCOCC4C)nc(N4CCOCC4C)nc3n2)c1 (centres undefined)
    ·	-39
33: CC(=O)O[C@@]1(C(C)=O)CC[C@H]2[C@@H]3C=C(Cl)C4=CC(=O)C5CC5[C@]4(C)[C@@H]3CC[C@@]21C (some centres undefined)
    ·	-6
34: O=C1Cc2c([nH]c3ccc(Br)cc23)-c2ncccc2N1
    ·	-12&-49
35: Cc1ccc(F)c(NC(=O)Nc2ccc(-c3cccc4[nH]nc(N)c34)cc2)c1
    ·	-15&-25&-23&-11
36: O=C(c1ccc(C(=O)N2CCC(N3CCCC3)CC2)c(Nc2ccccc2)c1)N1CCC(N2CCCC2)CC1
    ·	4
37: O=C(OC1CC2CC3CC(C1)N2CC3=O)c1c[nH]c2ccccc12 (centres undefined)
    ·	-70
38: O=C(CS(=O)Cc1ccco1)NCC=CCOc1cc(CN2CCCCC2)ccn1 (centres undefined)
    ·	16
39: O=C(O)CCC/C=C\C[C@@H]1[C@@H](CCC(=O)CCc2ccccc2)[C@H](O)C[C@@H]1O
    ·	-21&-21
40: O=c1[nH]c2cc(C(F)(F)F)c(N3CCOCC3)cc2n(CP(=O)(O)O)c1=O
    ·	6
41: O=C(Nc1ccc(OC(F)(F)F)cc1)c1sccc1NCc1ccnc2ccccc12
    ·	-2
42: CCOC(=O)C(CCc1ccccc1)NC(C)C(=O)N1Cc2ccccc2CC1C(=O)O (centres undefined)
    ·	-11
43: COc1ccc(-c2cc3c(C)nc(N)nc3n(C3CCC(OCCO)CC3)c2=O)cn1 (centres undefined)
    ·	-43
44: O=C(O)CCC/C=C\C[C@@H]1[C@@H](CC[C@@H](O)CCc2ccccc2)[C@H](O)C[C@@H]1O
    ·	-12&-12
45: CC(Oc1cc(-n2cnc3ccc(CN4CCN(C)CC4)cc32)sc1C(N)=O)c1ccccc1C(F)(F)F (centres undefined)
    ·	-8&-13&-11&-12&-4
46: CCCNC(C)C(=O)Nc1c(C)csc1C(=O)OC (centres undefined)
    ·	-8&-17
47: Cc1cnc(NC(=O)Nc2cc(Br)c(C)cc2OCC2CNCCO2)cn1 (centres undefined)
    ·	5
48: Cc1ccccc1C(=O)Nc1ccc(C(=O)N2CCCC(O)c3cc(Cl)ccc32)c(C)c1 (centres undefined)
    ·	5&-19
49: Cc1c(NC(=O)c2cccnc2)c(=O)n(-c2ccccc2)n1C
    ·	-18
50: O=C(CO)N1CCC(c2[nH]nc(-c3ccc(Cl)cc3)c2-c2ccncn2)CC1
    ·	-16&-19&-20
51: COc1ccc(Cn2ccc3ccc(C(=O)NO)cc32)cc1
    ·	-16
52: Oc1ccc(C=Cc2cc(O)cc(O)c2)cc1
    ·	-37&-121
53: C=CC(=O)Nc1cccc(Nc2nc(Nc3ccc(N4CCN(C(C)=O)CC4)cc3OC)ncc2C(F)(F)F)c1
    ·	3
54: CCN1CCN(Cc2ccc(Nc3ncc(F)c(-c4cc(F)c5nc(C)n(C(C)C)c5c4)n3)nc2)CC1
    ·	1
55: Cc1cc(NC(=O)c2cccc(NC(=O)C=CCN(C)C)c2)ccc1Nc1nccc(-c2cccnc2)n1
    ·	-15
56: Cc1nc(N)sc1-c1ccnc(Nc2ccc(N3CCOCC3)cc2)n1
    ·	-79&-5&-34&-39
57: Cc1cc(Cn2cnc3c2CC(C(=O)O)N(C(=O)C(c2ccccc2)c2ccccc2)C3)ccc1N(C)C (centres undefined)
    ·	-3
58: Cc1onc(-c2ccccc2Cl)c1C(=O)NC1C(=O)N2C(C(=O)O)C(C)(C)S[C@@H]12 (some centres undefined)
    ·	8
59: c1cc(OCCN2CCCCC2)cc(-c2n[nH]c3ccc(-c4ncn[nH]4)cc23)c1
    ·	-18&-21&-5
60: COc1cc2ncnc(Nc3cccc(O)c3)c2cc1OC
    ·	6

(next part)
Under each structure: GIV Gai3 FP	HCMV UL50-53 inh
61: Cc1c(CN2CCN(C(=O)C(C)O)CC2)sc2c(N3CCOCC3)nc(-c3cnc(N)nc3)nc12 (centres undefined)
    ·	10
62: COc1ccc(C2=NC(c3ccc(Cl)cc3)C(c3ccc(Cl)cc3)N2C(=O)N2CCNC(=O)C2)c(OC(C)C)c1 (centres undefined)
    ·	6&1&-6
63: CCCCNc1ncc(C(=O)NCc2ccc(-n3ccnc3)cc2)c(NC2CCC(O)CC2)n1 (centres undefined)
    ·	-4
64: CN(C)C(=O)C(O)C(Cc1ccccc1)NC(=O)c1cc2cc(Cl)ccc2[nH]1 (centres undefined)
    ·	12
65: CCn1c(N)c(C(=O)NC)c(=O)c2ccc(C#C[C@@](C)(O)COC)nc21
    ·	-12
66: Cc1cc(C(=O)Nc2cc(Nc3ccc4c(C=Cc5ccccn5)n[nH]c4c3)ccc2F)n(C)n1
    ·	-20&-14&-18
67: CC1(C)C(O[C@H]2OC(C(=O)O)C(O)C(O)C2O[C@@H]2OC(C(=O)O)C(O)C(O)C2O)CC[C@@]2(C)[C@H]3C(=O)C=C4[C@@H]5C[C@@](C)(C(=O)O)CC[C@]5(C)CC[C@@]4(C)[C@]3(C)CC[C@@H]12 (some centres undefined)
    ·	6
68: Cn1cc(-c2ccc3c(c2)CCN3C(=O)Cc2cccc(C(F)(F)F)c2)c2c(N)ncnc21
    ·	5
69: CC1CC2C3CC(F)C4=CC(=O)C(Cl)=C[C@]4(C)[C@@]3(F)C(O)C[C@]2(C)[C@@]1(O)C(=O)CO (some centres undefined)
    ·	-69
70: CC1(C)C(OC2OC(C(=O)O)C(O)C(O)C2OC2OC(C(=O)O)C(O)C(O)C2O)CC[C@@]2(C)[C@H]1CC[C@]1(C)[C@H]2C(=O)C=C2[C@H]3C[C@@](C)(C(=O)O)CC[C@]3(C)CC[C@]21C (some centres undefined)
    ·	28

Rewritten as tab-separated lines: entries from further up.
#	compound	GIV Gai3 FP	HCMV UL50-53 inh
40	O=c1[nH]c2cc(C(F)(F)F)c(N3CCOCC3)cc2n(CP(=O)(O)O)c1=O	·	6
69	CC1CC2C3CC(F)C4=CC(=O)C(Cl)=C[C@]4(C)[C@@]3(F)C(O)C[C@]2(C)[C@@]1(O)C(=O)CO (some centres undefined)	·	-69
55	Cc1cc(NC(=O)c2cccc(NC(=O)C=CCN(C)C)c2)ccc1Nc1nccc(-c2cccnc2)n1	·	-15
43	COc1ccc(-c2cc3c(C)nc(N)nc3n(C3CCC(OCCO)CC3)c2=O)cn1 (centres undefined)	·	-43

Another view of some results above.
61: Cc1c(CN2CCN(C(=O)C(C)O)CC2)sc2c(N3CCOCC3)nc(-c3cnc(N)nc3)nc12 (centres undefined)
  GIV Gai3 FP: ·
  HCMV UL50-53 inh: 10

67: CC1(C)C(O[C@H]2OC(C(=O)O)C(O)C(O)C2O[C@@H]2OC(C(=O)O)C(O)C(O)C2O)CC[C@@]2(C)[C@H]3C(=O)C=C4[C@@H]5C[C@@](C)(C(=O)O)CC[C@]5(C)CC[C@@]4(C)[C@]3(C)CC[C@@H]12 (some centres undefined)
  GIV Gai3 FP: ·
  HCMV UL50-53 inh: 6

62: COc1ccc(C2=NC(c3ccc(Cl)cc3)C(c3ccc(Cl)cc3)N2C(=O)N2CCNC(=O)C2)c(OC(C)C)c1 (centres undefined)
  GIV Gai3 FP: ·
  HCMV UL50-53 inh: 6&1&-6

69: CC1CC2C3CC(F)C4=CC(=O)C(Cl)=C[C@]4(C)[C@@]3(F)C(O)C[C@]2(C)[C@@]1(O)C(=O)CO (some centres undefined)
  GIV Gai3 FP: ·
  HCMV UL50-53 inh: -69

(next part)
Under each structure: GIV Gai3 FP	HCMV UL50-53 inh
71: Cc1cc(Nc2cc(N3CCN(C)CC3)nc(Sc3ccc(NC(=O)C4CC4)cc3)n2)n[nH]1
    ·	-8&-4&-8&3&3&14&8&4&-1
72: O=C(O)c1ccc[n+]([O-])c1
    ·	-33
73: Cc1cc(Nc2cc(N3CCN(C)CC3)nc(C=Cc3ccccc3)n2)n[nH]1
    ·	-44
74: COCC(=O)NCC=Cc1ccc2ncnc(Nc3ccc(Oc4ccc(C)nc4)c(C)c3)c2c1
    ·	-64&3&-12&-9&-43&-36&-76&-79
75: CC(=O)Nc1ccc(C(=O)O)cc1
    ·	-76
76: N[C@@H](CC(=O)Nc1ccc(Oc2cc(F)c(F)cc2Br)cc1)C(=O)O
    ·	9
77: Cn1c(=O)cc(N2CCCC(N)C2)n(Cc2ccccc2C#N)c1=O (centres undefined)
    ·	-8
78: COCCCOc1cc(C[C@@H](C[C@H](N)[C@@H](O)C[C@H](C(=O)NCC(C)(C)C(N)=O)C(C)C)C(C)C)ccc1OC
    ·	-68
79: CC=CC(=O)N(CC)c1ccccc1C
    ·	-82
80: Cc1nc(C(=O)NCC(=O)O)c(O)c2ccc(Oc3ccccc3)cc12
    ·	-78
81: COc1ccc(-n2nc(C(N)=O)c3c2C(=O)N(c2ccc(N4CCCCC4=O)cc2)CC3)cc1
    ·	2
82: Nc1nc(OCc2cc(Br)cs2)c2[nH]cnc2n1
    ·	9
83: COC(C(=O)N1Cc2[nH]nc(NC(=O)c3ccc(N4CCN(C)CC4)cc3)c2C1)c1ccccc1 (centres undefined)
    ·	10&7&-2&1

Assay outcomes deposited in PubChem BioAssay by ICCB-Longwood Screening Facility, Harvard Medical School.

This is a subset, so the mix of outcomes need not match the whole.
